# TRPML1 blocker: blocks the human TRPML1 channel; Q9GZU1; TRPML1-inducible cells, Ca2+ dye fluorescence, FDSS; stronger effect = lower value; inhibition of EC80 agonist-evoked calcium signal; 390,000 tested, 0.02% active; activity change, negative = inhibition, % (no concentration beside the values); AID 624415; in the data active means activity change below about -50%; inconclusive means about -30% to -50%; inactive means above about -30%;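 note: stimulus is agonist 54-4 at its EC80 concentration; % is set by controls: 0 for no effect and ±100 for the full control effect; compound concentration not given in the record; the text of the record puts the active cut at -80%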
#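 TRPML1-DL cells, Tet-induced overnight (~16 h, 37 °C) at 1,500 cells/well, were loaded with Ca8 no-wash dye plus quencher for 45-90 min at room temperature. Compounds were pinned during FDSS kinetic reading; agonist 54-4 at EC80 (4 uM final) then added.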
# TRPML1 agonist: activates the human TRPML1 channel; Q9GZU1; TRPML1-expressing cells, Ca2+ dye fluorescence, FDSS; host cell line not named in the record; reference of the full effect not given here; activation, % (no concentration beside the values); 410,000 tested, 0.12% active; in the data active = activation above about 50%; inconclusive = about 30% to 50%; inactive = below about 30%; note: 0% is about no effect; the text of the record puts the active cut at 80%
#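 Tetracycline-induced TRPML1-DL cells are seeded and incubated overnight before loading with a no-wash Ca2+ dye and quencher. Agonist activity is taken from the 110 s fluorescence read following compound pin-transfer on an FDSS, before EC80 54-4 challenge.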
# D2 PAM: human D2 receptor positive allosteric modulation. P14416. DiscoveRx D2 beta-arrestin cells, luminescence, 90 min; 100% = 57 uM dopamine signal. potentiation, % (test concentration not listed). 360,000 tested, 0.23% active. AID 624464; active = potentiation of 50% or more; inconclusive = 30% to 50%; inactive = 30% or less;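 note: compound concentration not given in the record; tested on top of an EC20 dose of dopamine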
#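 D2 cells co-treated with compound plus 50 nM dopamine (EC20) for 90 min at 37 deg C to detect potentiation. Beta-arrestin recruitment was read as enzyme-fragment luminescence after 1 h at ambient temperature. Full response was set by 57 uM dopamine.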
# D2 agonist: agonists of human D2 dopamine receptor (beta-arrestin); P14416; DiscoveRx PathHunter D2 beta-arrestin, luminescence, 90 min; 100% = 57 uM dopamine signal; activation, % (concentration not given with the values); 360,000 tested, 0.084% active; in the data active = activation above about 40%; inconclusive = about 15% to 40%; inactive = below about 15%; note: compound concentration not given in the record; the text of the record calls up to 30% inactive
#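 DiscoveRx PathHunter D2 beta-arrestin cells (2,100/well) attached overnight, then compound-stimulated 90 min at 37 C in HBSS/10 mM HEPES/0.1% Tween-20 buffer; beta-galactosidase complementation read by luminescence after 1 h at ambient temperature. Dopamine 57 uM final (EC100) as control.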
# PINK1 expr mod: PINK1 expression modulation; 410,000 tested, 0.2% active; Potency, µM (series often up to 76.6 µM), without a hit: at the top dose activation (PINK1 increase), actives largely listed as activators; PINK1 immunofluorescence, high-content cytometry, 24 h; active = well fitted activation curve with a large enough effect; inconclusive = small, poorly fitted or top-dose-only effect; inactive = flat fitted curve, though single readings scatter; cell line not stated here;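 note: potency is the fitted concentration of half-maximal effect; % of control where 0% means no effect; nearly all actives have a fitted effect of over 65% in size; a mitochondrial uncoupler was the plate control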
#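 Compound titrations (5 concentrations, 24 h) on a stable cell line; DMSO and CCCP controls. Endpoint: fixed-cell PINK1 immunofluorescence with mitochondrial, cell and nuclear markers, scanned by microplate cytometer.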
# Six1-Eya2 inh: Six1/Eya2 interaction inhibition. Q15475+O00167. AlphaScreen GST-Six1/His-Eya2 binding, biochemical; stronger effect = lower value; control for the full effect not named in the record. 360,000 tested, 0.56% active. activity change, % (test concentration not listed); in the data active = activity change below about -65%; inconclusive = about -30% to -65%; inactive = above about -30%; note: % is set by controls: 0 for no effect and ±100 for the full control effect; compound concentration not given in the record
# Target sequence (O00167 whole entry, looked up): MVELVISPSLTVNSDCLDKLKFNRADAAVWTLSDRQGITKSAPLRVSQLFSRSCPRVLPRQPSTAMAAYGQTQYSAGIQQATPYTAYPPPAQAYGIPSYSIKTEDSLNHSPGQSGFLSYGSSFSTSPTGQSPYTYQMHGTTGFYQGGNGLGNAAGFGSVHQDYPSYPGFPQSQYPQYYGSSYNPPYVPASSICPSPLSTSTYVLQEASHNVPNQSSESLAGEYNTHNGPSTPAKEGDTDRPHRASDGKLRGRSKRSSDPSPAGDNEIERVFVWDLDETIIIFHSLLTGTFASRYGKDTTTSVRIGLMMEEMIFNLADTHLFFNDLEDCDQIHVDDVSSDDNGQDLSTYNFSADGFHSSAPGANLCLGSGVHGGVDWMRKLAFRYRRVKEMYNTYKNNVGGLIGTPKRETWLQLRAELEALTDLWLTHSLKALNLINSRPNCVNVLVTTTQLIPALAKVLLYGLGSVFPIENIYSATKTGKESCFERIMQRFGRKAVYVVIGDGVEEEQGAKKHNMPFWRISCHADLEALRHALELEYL
# Target sequence (Q15475 whole entry, looked up): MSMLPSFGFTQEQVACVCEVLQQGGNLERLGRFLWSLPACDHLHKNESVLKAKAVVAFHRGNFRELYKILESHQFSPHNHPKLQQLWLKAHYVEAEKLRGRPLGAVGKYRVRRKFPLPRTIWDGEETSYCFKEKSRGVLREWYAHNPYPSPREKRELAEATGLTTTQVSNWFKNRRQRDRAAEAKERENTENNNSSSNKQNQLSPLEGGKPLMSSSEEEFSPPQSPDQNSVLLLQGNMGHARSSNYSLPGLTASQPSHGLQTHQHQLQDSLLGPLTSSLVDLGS
#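 Six1/Eya2 binding was read as AlphaScreen signal after compounds were pinned into GST-Six1 plus His-tagged Eya2 (5X stock 250/500 nM) in pH 8.0 Tris/NaCl/TCEP buffer, beads added, then incubated 1 h, 37 C, dark.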
# The depositor's hits bear a star; ? = inconclusive; nt = no result given; & = joins results of further samples; [ ] = remark or other dose. Outcome played no part in choosing rows, and some 1% of all compounds hit somewhere here.
SMILES,TRPML1 blocker,TRPML1 agonist,D2 PAM,D2 agonist,PINK1 expr mod,Six1-Eya2 inh
CC(NC(=O)C(Cc1ccccc1)n1cccc1)c1ccccc1 (stereo unspecified),25,-0.8,-5,0.2,4.5%,-11
CCCCCCCC(=O)N/N=C/c1cccnc1,-3,0.6,0,-1.2,nt,5
CCC(CC)C(=O)Oc1c(Sc2ccccc2[N+](=O)[O-])c(C)nn1C(C)(C)C,-18,10,-18,-1.7,8.4%,-18
COc1ccc(C)cc1Nc1n[n+](-c2ccccc2)c(-c2ccc(NC(C)=O)cc2)s1,-10,0.5,-20,-1.9,0.0%,2
CCOc1cccc(C(=O)Nc2cccc(C(C)=O)c2)c1,0,0.8,3,-5.5,-0.2%,-1
COc1ccc(C(O)C(CN2CCOCC2)c2ccccc2)cc1 (stereo unspecified),-15,-0.1,-12,0.1,-3.4%,6
CC1CCCC(NC(=O)CSc2nnc(-c3cccnc3)o2)C1C (stereo unspecified),-10,-0.2,-1,2.0,2.3%,1
CCN(c1ccccc1)S(=O)(=O)c1ccc(Cl)c(NC(=O)COC(=O)c2cccc(OC)c2O)c1,1,1.0,-21,-5.0,20%,-9
O=C(NCc1cccc(F)c1F)C1CCC(=O)N(C2CCCCCC2)C1 (stereo unspecified),17,-0.3,-9,-1.4,-2.5%,3
O=C(Nc1ccccc1)C1CCCN1S(=O)(=O)c1cccs1 (stereo unspecified),19,-0.8,-4,-2.6,0.6%,2
CSc1nc(C)cc(Nc2cccc(C(=O)O)c2)n1,-10,-0.9,nt,nt,-0.5%,nt
O=S(=O)(Cc1ccccc1)Cc1cnc(Cl)s1,0,0.2,2,7.9,2.1%,7
COc1cccc(Nc2nc(C)cc(C)c2C#N)c1,-6,-0.3,-19,-3.7,0.0%,10
O=C(Nc1ccccc1)c1ccc[n+](Cc2ccc([N+](=O)[O-])cc2)c1,7,0.9,-34,-2.7,-0.5%,3
CCOc1ccccc1N(CC(=O)NCc1ccco1)C(=O)CCC(=O)Nc1nccs1,14,-0.4,2,-1.7,3.6%,-3
O=C(NCCCN1CCOCC1)c1cc2ccccc2cc1O,40,-0.4,10,5.1,0.3%,0
CCOc1ccc(OCCC(=O)OCC(=O)Nc2cc(S(=O)(=O)N3CCOCC3)ccc2C)cc1,13,-0.3,-15,-3.1,-0.9%,0
COc1ccc(NC(=O)COC(=O)c2cc(S(=O)(=O)N3CCCC3)ccc2O)cc1,-2,0.2,0,2.4,2.4%,-4
Cc1cc(C)c(C(=O)COC(=O)c2cccc(S(=O)(=O)N3CCOCC3)c2)cc1C,-1,-0.4,1,0.8,6.6%,17
Cc1nn(C(C)(C)C)c(OC(=O)c2cccc(F)c2)c1Sc1ccccc1,1,0.6,nt,nt,4.0%,nt

# Continued, starting with the last 4 of the part before.
SMILES,TRPML1 blocker,TRPML1 agonist,D2 PAM,D2 agonist,PINK1 expr mod,Six1-Eya2 inh
CCOc1ccc(OCCC(=O)OCC(=O)Nc2cc(S(=O)(=O)N3CCOCC3)ccc2C)cc1,13,-0.3,-15,-3.1,-0.9%,0
COc1ccc(NC(=O)COC(=O)c2cc(S(=O)(=O)N3CCCC3)ccc2O)cc1,-2,0.2,0,2.4,2.4%,-4
Cc1cc(C)c(C(=O)COC(=O)c2cccc(S(=O)(=O)N3CCOCC3)c2)cc1C,-1,-0.4,1,0.8,6.6%,17
Cc1nn(C(C)(C)C)c(OC(=O)c2cccc(F)c2)c1Sc1ccccc1,1,0.6,nt,nt,4.0%,nt
O=C1CN(S(=O)(=O)c2ccc(Br)cc2)c2ccccc2N1,-9,0.1,-7,-3.1,1.4%,6
CN(C(=O)COc1ccc2ccc(=O)oc2c1)C1CCS(=O)(=O)C1 (stereo unspecified),91,-1.0,-11,1.1,-1.1%,16
Cc1[nH]ccc2cc3nc4ccccc4c3cc12,9,0.1,-17,6.1,-0.9%,-16
Cn1ccnc1SCC(=O)Nc1cccc(C(F)(F)F)c1,4,-0.1,-32,-1.5,nt,2
Nc1cc(C(=O)O)c(N)c2c1C(=O)c1ccccc1C2=O,nt,nt,-27,-9.7,0.2%,-80*
Cc1cccn2c(=O)c3cc(C(=O)NCC4CCCO4)c(=N)n(CCc4ccccc4)c3nc12 (stereo unspecified),-14,-0.7,-5,-5.5,0.8%,-14
COc1ccccc1CNC(=O)COC(=O)c1cc(=O)c2ccccc2o1,6,0.1,-6,-3.3,1.5%,3
CN(C)CCN(C(=O)CCS(=O)(=O)c1ccccc1)c1nc2c(F)cccc2s1,-4,0.2,-31,-5.2,-0.4%,5
CS(=O)(=O)c1cccc(C(=O)OCCCC(=O)c2ccccc2)c1,4,-0.4,0,7.5,0.6%,2
CCNS(=O)(=O)c1ccc(CCC(=O)NCc2ccccc2)cc1,-23,0.0,-3,3.8,-0.6%,3
Cc1ccc(Oc2ncccc2C(=O)NCC(=O)O)cc1,19,0.1,-5,3.4,3.7%,5
CCn1c(C(=O)NC(C)c2ccc3c(c2)OCCO3)cc2sccc21 (stereo unspecified),4,0.3,-8,-5.8,4.4%,-29
C[C@H]1Cn2cnc(C(=O)Nc3ccccc3)c2C(=O)N1,-5,-0.4,2,-7.8,0.4%,1
CCC(=O)N(CCc1ccccc1)Cc1cc2cc(C)ccc2[nH]c1=O,-10,-0.4,-2,0.4,0.8%,6
Cc1ccsc1/C=N/NC(=O)c1nnn(-c2nonc2N)c1C(C)C,-12,2.4,-2,3.7,0.1%,2
O[C@@H]1CN(Cc2cccs2)[C@@H](c2ccccc2)C[C@H]1n1cc(-c2ccc(F)cc2)nn1,?,-0.1,-6,-11,5.9%,-8
Cc1cccc(-c2noc(-c3ccccc3OCC(=O)Nc3ccc([N+](=O)[O-])cc3)n2)c1,3,-0.4,nt,nt,1.7%,nt
Cn1c(Cn2nnc3ccccc32)nnc1SCC(=O)N1c2ccccc2Sc2ccccc21,-5,0.5,-7,-0.6,1.5%[38.3 µM],-25
CC(C)COc1cccc(C(=O)NC2(C)CCS(=O)(=O)C2)c1 (stereo unspecified),5,-0.4,3,-1.9,-1.5%,11
O=C(CCCCCn1c(=O)[nH]c2ccsc2c1=O)NCc1ccc2c(c1)OCO2,3,0.7,13,2.0,-2.5%,0

# Ordered by formula weight (falling): 3 of the compounds above
SMILES,TRPML1 blocker,TRPML1 agonist,D2 PAM,D2 agonist,PINK1 expr mod,Six1-Eya2 inh
O=C(CCCCCn1c(=O)[nH]c2ccsc2c1=O)NCc1ccc2c(c1)OCO2,3,0.7,13,2.0,-2.5%,0
CN(C(=O)COc1ccc2ccc(=O)oc2c1)C1CCS(=O)(=O)C1 (stereo unspecified),91,-1.0,-11,1.1,-1.1%,16
C[C@H]1Cn2cnc(C(=O)Nc3ccccc3)c2C(=O)N1,-5,-0.4,2,-7.8,0.4%,1

# (listing goes on)
SMILES,TRPML1 blocker,TRPML1 agonist,D2 PAM,D2 agonist,PINK1 expr mod,Six1-Eya2 inh
NC(=O)c1cc([N+](=O)[O-])ccc1N1CCCCC1,20,-0.1,20,0.7,-1.2%,1
CCCOc1ccc(N2C(=O)CC(NCc3cccs3)C2=O)cc1 (stereo unspecified),21,0.7,-16,3.2,-0.6%,6
CC(=O)C1=CN(CC2CCCCC2)CCC1=O,3,-0.4,-6,-1.7,0.0%,-1
CCCCCCOC(=O)C(C#N)c1nc2ccccc2nc1N1CCCCC1 (stereo unspecified),9,0.4,-7,-1.3,9.8%,-1
CCN1CCN(c2ccc(NC(=O)c3ccco3)cc2Cl)CC1,-14,0.1,-11,-3.7,-1.9%,4
CC(C)(C)c1ccc(-c2nc3c(C#N)c(-c4ccc5c(c4)OCO5)ccn3n2)cc1,5,0.2,11,-2.2,1.9%,1
O=C(NC1CC1)c1cc(OCC(F)(F)F)ccc1OCC(F)(F)F,9,-0.6,0,-2.7,1.8%,2
O=[N+]([O-])c1cccc(/C=N\N=C2c3ccccc3-c3ccccc32)c1O,-10,-0.2,-16,-2.6,27%,-21
COCCn1c(SCC(=O)Nc2ccccc2OC)nc2c(oc3ccccc32)c1=O,-9,2.7,-1,-1.7,1.0%,-4
COc1cc(C(=O)COC(=O)c2cnc(C)cn2)ccc1OC(F)F,-5,1.7,-22,-10,2.8%,15
O=C(O)C1=C[C@@H](c2ccc(C(F)(F)F)cc2)C[C@@H](OCc2ccc(CO)cc2)O1,-8,-0.5,-2,-1.2,7.7%,-9
CCn1ncc([N+](=O)[O-])c1C(=O)Nc1nc2cccc(C)c2s1,-12,0.2,-16,-3.9,3.7%,-4
CS(=O)(=O)c1ccc2nc(NC(=O)c3ccco3)sc2c1,-3,-0.6,-7,0.8,1.5%,1
Cc1cc(C(=O)NC2CCC(O)CC2)c(C)o1 (stereo unspecified),25,0.5,-5,8.1,-1.0%,-16
O=C(NCCCNc1ccc([N+](=O)[O-])cc1)C(F)(F)F,-9,0.3,-23,-0.3,-0.3%,4
Cc1ccc(CN2CCN(C3CCN(C(=O)Nc4ccc(C)cc4Cl)CC3)C(=O)C2=O)cc1,-11,3.1,nt,nt,-0.1%,nt
O=C(c1ccc2c(=O)n(CCc3ccccc3)c(=O)[nH]c2c1)N1CCN(c2ccc(F)cc2)CC1,15&-16,1.8&2.6,16,7.5,11%&4.2%,2
c1ccc(C[n+]2csc3ccccc32)cc1,-13,2.8,-2,-2.3,?,-25
Cc1ccc(-c2nc(C)c(C(=O)O)s2)cc1,-23,0.0,-4,-0.3,-1.0%,6
Cc1ccc2oc(-c3ccc(C)c(NC(=O)C(C)(C)Oc4ccc(Cl)cc4)c3)nc2c1,21,-0.3,nt,nt,-0.3%,nt
COc1ccc(/C=C/C(=O)NC(=S)NNC(=O)Cc2cccs2)cc1,13,0.1,-12,-0.8,-2.3%,-21
Cc1ccc(OCCC(=O)OCC(=O)Nc2ccc(C)c(S(=O)(=O)N3CCOCC3)c2)cc1,48,3.0,8,-1.6,2.9%,5
COc1cccc(OC)c1C(=O)NNC(=O)c1ccc(F)cc1,0,-1.2,-8,-2.4,-0.4%,-2
Cc1ccc(S(=O)(=O)c2cn(C)c3cc(N4CCCC(C)C4)c(F)cc3c2=O)c(C)c1 (stereo unspecified),-12,0.5,nt,nt,2.5%,nt
O=C1NCCC/C1=N\Nc1ccc(Br)cc1,-17,0.9,-21,-5.2,-0.5%,25
CC(C)Cc1nn2c(=O)cc(COC(=O)CNC(=O)c3ccc(C(C)(C)C)cc3)nc2s1,1,-0.3,nt,nt,0.7%,nt
CCc1ccc(CNC(=O)CCS(=O)(=O)Cc2ccccc2F)cc1,-2,0.4,1,-3.3,0.0%,7
CS(=O)(=O)c1ccc(Cl)c(NC(=O)CSc2n[nH]c(-c3cccs3)n2)c1,9,-0.1,-21,-7.7,0.4%,-17
Cn1cc(/C=C(\C#N)C(=O)Nc2cccc([N+](=O)[O-])c2)c2ccccc21,16,-0.2,-8,-3.6,?,9

# Screening data (PubChem)
